# AID923 – qHTS Assay for Allosteric/Competitive Inhibitors of Caspase-1: Spectroscopic Profiling in AFC Spectral Region; compound fluorescence, AFC spectral region (405/520 nm); almost no hit is shown here; Potency, µM (highest dose often 57.5 µM), for the others: at the top dose fluorescence increase, usual class: activators; 1.1% of 75,000 active; active means well fitted activation curve with a large enough effect; inconclusive means small, poorly fitted or top-dose-only effect;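 further: potency means the concentration at half of the fitted maximal effect; 0% is about no effect; scaled to a free AFC standard on each plate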
#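 Compound autofluorescence profiled at 405 nm ex/520 nm em during kinetic caspase 1 run (50 nM enzyme, 5 uM Ac-WEHD-AFC, HEPES pH 7.5, 10 mM DTT). Titration up to 57 uM; baseline from regression intercept, normalized to AFC standard curve.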
# A488 autofl – compound fluoresces in the A488 spectral region | 0.1% of 59,000 active | AID 591 | max dye equivalency, M | compound autofluorescence, A488 spectral region, dye equivalency; active compounds read high; active = above 10 nM dye equivalent; inconclusive = 1 to 10 nM; inactive = 1 nM or less; about half of its hits are not listed in these tables;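 further: highest value over a series up to 38 µM; compound alone in buffer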
#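 Read-out: relative fluorescence at 480/540 nm, expressed as Alexa 488 dye-equivalent concentration from a six-point A488 standard included per plate. Conditions: 100 mM Tris, pH 8.0; 15 min incubation, room temperature.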
# A647 autofl – A647 region autofluorescence. Compound fluorescence, A647 channel (570/671 nm), Tris buffer. max dye-equivalent concentration, M. 59,000 tested, under 10 active. AID 592; active means above 1 µM dye equivalent; inconclusive means 0.1 to 1 µM; inactive means 0.1 µM or less;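 further: values scaled relative to a standard on each plate; highest value over a series up to 38 µM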
#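 Compound fluorescence was measured in 100 mM Tris buffer, pH 8.0, after 15 min at room temperature, using 570 nm excitation and 671 nm emission filters. Signal was normalized to a per-plate Alexa 647 standard curve and expressed as dye-equivalent concentration at each compound concentration.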
# TSHR agonist – activates the human thyroid stimulating hormone receptor; HEK293-CNG-TSHR cells (CNG channel as cAMP sensor), membrane potential dye, cAMP; P16473; 0.48% of 73,000 active; Potency, µM (titrated, usually from 57.1 µM), inactives show at the top dose activation, usual class: activators; active = well fitted activation curve of enough size with the parental cells flat; inconclusive = any curve in the parental cells; inactive = parental cells flat and receptor cells flat or falling; further: potency means the concentration at half of the fitted maximal effect; % of control where 0% means no effect; weak receptor curves with flat parental cells got no call and are not listed
# Target sequence (P16473 whole entry, looked up): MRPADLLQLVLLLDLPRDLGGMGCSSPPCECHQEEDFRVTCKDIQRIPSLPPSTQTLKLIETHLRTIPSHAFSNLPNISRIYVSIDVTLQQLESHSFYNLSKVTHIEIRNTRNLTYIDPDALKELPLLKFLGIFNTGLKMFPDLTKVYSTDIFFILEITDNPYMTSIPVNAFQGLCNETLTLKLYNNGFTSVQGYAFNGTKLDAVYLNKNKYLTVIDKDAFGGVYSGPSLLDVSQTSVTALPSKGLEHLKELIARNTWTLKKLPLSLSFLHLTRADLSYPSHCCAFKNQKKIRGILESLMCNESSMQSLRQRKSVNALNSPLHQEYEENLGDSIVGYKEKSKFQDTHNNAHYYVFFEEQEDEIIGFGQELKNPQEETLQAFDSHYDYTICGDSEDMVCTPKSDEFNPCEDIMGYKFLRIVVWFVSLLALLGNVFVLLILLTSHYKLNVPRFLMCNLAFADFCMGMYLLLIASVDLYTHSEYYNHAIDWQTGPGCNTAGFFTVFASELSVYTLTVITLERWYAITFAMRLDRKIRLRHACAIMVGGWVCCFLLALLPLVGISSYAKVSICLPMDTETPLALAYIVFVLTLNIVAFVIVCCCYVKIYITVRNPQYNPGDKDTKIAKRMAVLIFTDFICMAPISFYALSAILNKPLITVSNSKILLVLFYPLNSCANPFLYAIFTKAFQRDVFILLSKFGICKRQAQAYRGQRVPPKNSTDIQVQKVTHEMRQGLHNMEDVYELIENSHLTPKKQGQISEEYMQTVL
#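 HEK 293 cells stably expressing TSHR and a modified CNG channel, with CNG-only parental cells as counterscreen, were preloaded 60 min at room temperature with membrane potential dye containing 100 uM RO 20-1724. Compound exposure was 30 min, and depolarization was read as fluorescence at 590 nm.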
# Resorufin fluor – compound fluoresces in the resorufin spectral region | Compound fluorescence, resorufin region 547/598 nm, buffer; active compounds read high | 0.04% of 59,000 active | AID 588 | max dye-equivalent concentration, M; active = above 10 nM dye equivalent; inconclusive = 1 to 10 nM; inactive = 1 nM or less; a few of its hits are not listed in these tables; further: highest value over a series up to 38 µM
#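 Read-out: intrinsic compound fluorescence at ex 547/em 598 nm after 15 min at RT in pH 8.0 Tris (100 mM). Values expressed as resorufin-equivalent concentration from per-plate standard series.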
# Numbers without * were called inactive; i = inactive; ? = inconclusive; . = no result given; [ ] = remark or other dose. These rows are one share of the data. The share of hits here may be higher or lower than overall.
Compound | TSHR agonist | AID923 | A647 autofl | A488 autofl | Resorufin fluor
CCCCOC(=O)Cn1c(=N)n(CCN2CCOCC2)c2ccccc21 | ? | -1.5% | 4.4e-09 | i | i
Cc1cc(C)cc(N(C(C)C(=O)N2CCCCC2)S(C)(=O)=O)c1 (centres undefined) | 5.1% | -1.3% | 4.3e-09 | i | i
O=C(Nc1ccc2c(c1)OCO2)C1CC(c2c(F)cccc2Cl)=NO1 (centres undefined) | -4.1% | -0.7% | 2.2e-09 | i | i
CCc1c(C(C)O)oc2ccc3c(C)cc(=O)oc3c12 (centres undefined) | 6.6%[11.4 µM] | -1.2% | . | . | .
CCOc1ccc(OCC)c(NC(=O)CN2CCN(C(=O)c3ccco3)CC2)c1 | 7.8% | -0.9% | 1e-09 | i | i
Cc1ccnc(NC(=O)C2CCN(S(=O)(=O)c3cccc4nonc34)CC2)c1 | 1.4% | 0.4% | 6.9e-09 | i | i
CCOC(=O)c1c(C)c(C(=O)Nc2cc(F)ccc2F)c(C)n1C | ? | 0.2% | 1.9e-09 | i | i
COc1ccc(OC)c2[nH]c(=O)c(CCNC(=O)C(C)(C)C)cc12 | 6.5% | -2.5% | . | . | .
CC(C)=CCC/C(C)=C/CO/N=C1/[C@H]2O[C@@H]2[C@@H](O)[C@H]2[C@H]1CCn1c(=O)n(C)c(=O)n12 | -2.4%[11.4 µM] | -0.4%[11.5 µM] | . | . | .
CCOc1ccc(CN(Cc2ccco2)C(c2cccs2)c2nnnn2C(C)(C)C)cc1 (centres undefined) | 12.2% | 1.7% | 1.1e-09 | i | i
CN(C)c1ccc(-n2cc3c(=O)n(C)c(=O)n(C)c3c2)cc1 | -9.9% | 1.4% | 9.8e-09 | i | i
Cc1ccc2occ(CN3CCN(c4ccccc4)CC3)c(=O)c2c1 | ? | -3.4% | . | . | .
CCSC1=C(C#N)C(c2cccc(Br)c2)CC(=O)N1 (centres undefined) | 9.4% | 1.3% | 1e-09 | i | i
C=C(CC1([C@@H](NP(=O)(c2ccccc2)c2ccccc2)[C@H]2C[C@@H]2CCN(C(=O)OCC)S(=O)(=O)c2ccc(C)cc2)CC1)c1ccccc1 | 0.7% | 0.5% | . | . | .
CC(C)c1nnc(NC(=O)CCN2C(=O)c3ccccc3C2=O)s1 | 8.5% | -1.3% | . | . | .
CCc1nnc2sc(-c3ccc(NC(=O)c4ccco4)cc3)nn12 | 5.7% | 0.0% | 4.41e-08 | i | i
CC(C)OC(=O)c1c(N)sc2c1CCCC2 | -7.9% | -1.0% | 1.3e-09 | i | i
COc1ccccc1N1CCN(c2cc(N3CCCC3)nc(C)n2)CC1 | 16.0% | 0.7% | 1e-09 | i | i
NS(=O)(=O)c1ccc(N=Nc2ccc(O)c(C(=O)O)c2)cc1 | 2.7%[11.4 µM] | 1.1%[11.5 µM] | 2.89e-08 | i | i
COC(=O)c1ccc(/C(O)=C(\C#N)c2nc3ccccc3s2)cc1 | ? | -1.3% | 3.9e-09 | i | i
CCOC(=O)c1c(C)n(C)c2ccc(OC(C)C(=O)OC)cc12 (centres undefined) | 5.1% | 2.0% | 1.92e-08 | i | i
COc1ccc(-c2nnc(-c3cccs3)o2)cc1OC | 6.5% | 0.8% | . | . | .
O=C(CCC(=O)N1CCc2ccccc2C1)N1CCN(S(=O)(=O)c2ccccc2)CC1 | 1.8% | -0.8% | 5.7e-09 | i | i
COc1cc(NC(=O)c2ccccc2)cc(OC)c1 | 16.2% | 1.5% | 1e-09 | i | i
COc1ccccc1NC1C=CS(=O)(=O)C1 (centres undefined) | -12.3% | -2.8% | . | . | .
CC(C)N(C(=O)Cn1cnc2c(cnn2-c2ccccc2Cl)c1=O)C(C)C | 6.9% | 0.7% | 4.44e-08 | i | i
O=C(c1ccco1)N1CCC[C@@]2(CCN(c3ncccn3)C2)C1 | 1.5% | -0.4% | 1.67e-08 | i | i
Cc1ccccc1NC(=O)Cn1c(C)nc2ccc(NC(=O)C3CC3)cc2c1=O | -4.3% | 1.5% | 1.1e-09 | i | i
COc1cccc(Nc2ncc3ncc(=O)n(C)c3n2)c1 | -5.5% | 3.7% | 1e-09 | i | i
O=C(Cn1ncc2c(=O)oc3ccccc3c21)Nc1nc2ccccc2s1 | 5.9% | 0.4% | 7.7e-09 | i | i
CCOC(=O)C1=C[C@]2(CC)CCCN3CCc4c(n1c1ccccc41)[C@@H]32 | . | . | 1.39e-08 | i | i
CCn1c2ccccc2c2nnc(SCC(=O)Nc3ncccn3)nc21 | -3.0%[11.4 µM] | -2.3% | 4e-09 | i | i
CCOC(=O)N1CCN(c2c(N3CCN(c4cccc(C(F)(F)F)c4)CC3)c(=O)c2=O)CC1 | -3.1%[11.4 µM] | -0.8% | 1e-09 | i | i
Cc1cccc(CCNC(=O)CN(C)S(=O)(=O)c2ccc3c(c2)c(=O)n(C)c(=O)n3C)c1 | -1.7% | 1.5% | . | . | .
Cc1ccc(-n2ncc3c(=O)[nH]c(SCC(=O)N4CCCc5ccccc54)nc32)cc1 | ? | 0.6% | 2.7e-08 | i | i
CCc1ccc(Cn2nnc(C(=O)NCc3ccccc3OC)c2N)cc1 | ? | -2.7% | . | . | .
CCCCSc1nnc(-c2ccc(NC(C)=O)cc2)n1C | . | . | 1.5e-09 | i | i
COCCCn1c(-c2ccsc2)nc2c1c(=O)[nH]c(=O)n2Cc1ccccc1 | 15.5% | 1.0% | 1.5e-09 | i | i
CCCCOc1ccc(OCCCC)c2c1NC1(N2)C(=O)N(C(C)=O)c2ccccc21 | 21.8% | 2.2% | 1e-09 | i | i
Cn1nnnc1SCC(=O)NCc1ccco1 | -2.4% | 2.6% | 5.43e-08 | i | i
CCOC(=O)Cn1c(=O)oc2cc(S(=O)(=O)N3CCn4c3nc3ccccc34)ccc21 | 22.8% | 0.4% | . | . | .
Cc1cc2c(c(=O)n1Cc1ccc3c(c1)OCO3)C(c1cccnc1)C(C#N)=C(N)O2 (centres undefined) | -5.9% | 3.5% | 1e-09 | i | i
CC(C)CNS(=O)(=O)c1ccc(S(=O)(=O)N2CCN(CCC#N)CC2)cc1 | -14.9% | 0.4% | . | . | .
O=C1OCCC1Sc1nnc(-c2ccco2)o1 (centres undefined) | -4.2% | -2.8% | 7e-09 | i | i
COC(=O)c1cc(-c2ccc(Br)cc2)on1 | 6.4% | 2.0% | . | . | .
O=C(CCC(=O)c1cccs1)OCC(=O)N1CCN(C(=O)c2ccco2)CC1 | 5.2% | -0.4% | 2.33e-08 | i | i
CC(=O)c1ccc(Cl)c(Cl)c1Cl | 0.1% | 2.7% | . | . | .
COc1ccccc1NS(=O)(=O)c1ccc(Br)s1 | . | 1.3% | 9.5e-09 | i | i
COc1cc(/C=C\c2ccc(OC)cc2OC)cc(OC)c1 | ? | -2.4% | . | . | .
COC(=O)c1cc(Br)c(=O)n(Cc2cccnc2)c1 | . | . | 2.28e-08 | i | i
COc1cccc(-c2ccc3ncnc(N4CCN(C)CC4)c3c2)c1 | 25.1% | 0.9% | 2.61e-08 | i | i
Nc1ncnc2c1ncn2[C@@H]1O[C@@H](COP(=O)(O)OP(=O)(O)OP(=O)(O)OP(=O)(O)OC[C@@H]2O[C@@H](n3cnc4c(N)ncnc43)[C@@H](O)[C@H]2O)[C@H](O)[C@@H]1O | 21.7% | -4.1% | 7.4e-09 | i | i
CCOC(=O)C1CSc2[nH]c(=O)sc2C1c1ccccc1 (centres undefined) | . | . | 1.51e-08 | i | i
Nc1sccc1C(=O)c1ccc(Cl)cc1 | -3.6% | 2.5% | 2.62e-08 | i | i
O=C(c1cccc(N2C(=O)C3CC=CCC3C2=O)c1)N1CCN(c2ccccc2)CC1 (centres undefined) | 14.0%[11.4 µM] | 2.2% | 2.14e-08 | i | i
CCn1c(CC(=O)Nc2ccccc2F)nnc1SCC(=O)N1CCN(c2ccccc2)CC1 | -3.5% | 0.2% | 1e-09 | i | i
Cc1nc(C)c(C(=O)NCc2ccccc2Cl)o1 | 6.7% | 0.5% | 2.3e-08 | i | i
COc1ccc(C(C)=O)c(OC(=O)c2ccc(OC)c(OC)c2)c1 | 13.6% | 1.1% | 1e-09 | i | i
Cc1nnc2sc(-c3ccc(NC(=O)c4ccc(-c5ccc(Cl)cc5Cl)o4)cc3)nn12 | 6.0% | 6.6% | 2.79e-08 | i | ?
Cn1c(=O)c2cn(-c3ccc4c(c3)OCCO4)cc2n(C)c1=O | 5.8% | 4.5% | 1e-09 | i | i

# New compounds follow:
Compound | TSHR agonist | AID923 | A647 autofl | A488 autofl | Resorufin fluor
O=S(=O)(c1ccc(F)cc1)N1CCN(Cc2ccccc2C(F)(F)F)CC1 | 28.2% | 0.7% | . | . | .
CCn1cc(C(=O)N2CC(C)CC(C)C2)c(=O)c2cc(S(=O)(=O)N3CCOCC3)ccc21 (centres undefined) | 1.1% | -0.7% | 6.9e-09 | i | i
Cn1nnc2c(NCc3ccco3)nccc21 | -1.4% | 1.6% | 6.8e-09 | i | i
CCOC(=O)c1ccc(NC(=O)Nc2ccc3c(c2)OCCO3)cc1 | -28.9% | -0.5% | 1e-09 | i | i
COc1ccccc1NC(=O)c1ccc(CN2CCOCC2)cc1 | -4.5% | -3.0% | . | . | .
O=C(c1ccsc1)N1CCN(C(=O)c2cccs2)CC1 | -10.7% | 1.4% | . | . | .
C(CCc1nnc2c(n1)CCCC2)Cc1nnc2c(n1)CCCC2 | 6.4%[11.4 µM] | 5.5%[11.5 µM] | 5e-09 | i | i
N#C/C(=C\c1ccco1)Sc1nc2ccccc2s1 | ? | 0.0% | 1.3e-09 | i | i
O=C(C1CCCN(S(=O)(=O)c2ccccc2)C1)N1CCN(c2ncccn2)CC1 (centres undefined) | -2.2% | -0.1% | 1.27e-08 | i | i
COC(=O)c1ccccc1NC(=O)N1CCN(C(=O)c2ccco2)CC1 | 3.9% | -0.9% | 3.33e-08 | i | i
N#Cc1ccccc1-c1ccc2ncnc(NCCN3CCOCC3)c2c1 | 7.9% | 2.9% | 1e-09 | i | i
O=C1CSC(c2ccccn2)N1c1cccc(Cl)c1 (centres undefined) | 4.1% | 0.6% | 1e-09 | i | i
O=C(c1ccccn1)N1CCN(c2ccc(C(F)(F)F)cn2)CC1 | 1.3% | -0.6% | 2.7e-09 | i | i
CSc1nc2ccccc2n1C(=O)NC1CCCCC1 | . | -1.1% | 5.3e-09 | i | i
Cc1ccccc1NC(=O)CCN1CCN(C/C=C/c2ccccc2)CC1 | ? | 1.9% | . | . | .
COc1cccc(-n2nnc3c(=O)n(CC(=O)NC4CCCC4)cnc32)c1 | 1.1% | 0.0% | 1e-09 | i | i
CC(=O)N=c1cccc(NC(C)=O)n1O | -2.4% | 1.0% | . | . | .
O=C(Oc1cccc2ccccc12)c1ccco1 | 4.0%[11.4 µM] | -0.2% | . | . | .
Cc1ccc(N2CC(C(=O)N3CCc4ccccc43)CC2=O)cc1 (centres undefined) | -5.0% | -1.5% | 5.5e-09 | i | i
c1ccn2c(Cc3nnc4ccccn34)nnc2c1 | 0.3% | -0.5% | 2.93e-08 | i | i
CC1CCCN(C(=O)C2CCN(CC3CC=CCC3)CC2)C1 (centres undefined) | 5.7% | 0.4% | 4.29e-08 | i | i
CCN(CCO)C1CC(=O)N(c2ccccc2C)C1=O (centres undefined) | -3.2% | -2.5% | 1e-09 | i | i
CN(C)S(=O)(=O)c1cccc(-c2nnc(SCc3ccc4c(c3)OCCO4)o2)c1 | ? | -1.1% | 6.5e-09 | i | i
CCCCn1c(-c2ccsc2)nc2c1c(=O)[nH]c(=O)n2CCC | ? | 12.6% | 1e-09 | i | i
CCc1ccc2[nH]c(=O)c(CN(Cc3ccc(OC)cc3)Cc3nnnn3CCOC)cc2c1 | ? | 6.9% | 1e-09 | i | i

# Source: PubChem BioAssay
